# Mtb growth = Mycobacterium tuberculosis H37Rv growth inhibition, cell based, confirmatory dose response (AID 1949); most inactive calls were filed without a number and no value below 0 was filed; one-dose inhibition, % at 10 µg/mL; IC50 in µg/mL for titrated hits; actives 1.6% (n = 100,000);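 active = confirmed in a dose series; inconclusive = about 50% or more but not retested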;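 note: bacteria grown 7 days with compound before Alamar blue readout; 0% = untreated bacteria and 100% = reference antibiotic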
# * = called active by the depositor; i = inactive; ? = inconclusive.
SMILES | Mtb growth
O=S(=O)(c1cc(I)cc(S(=O)(=O)C(F)(F)F)c1)C(F)(F)F | i
O=C(CSCc1c(Cl)cccc1Cl)Nc1ccccc1C(F)(F)F | i
COc1ccc(OCCCC(=O)Nc2ccc(N3CCCCC3)cc2)cc1 | 2%
CCOCC(=O)N1CCN(c2cccc(C)c2C)CC1 | 1%
COc1cc(Cl)c(S(=O)(=O)N2CC(C)OC(C)C2)cc1Cl (stereo not drawn) | i
COc1cccc(OCCOCCOc2ncnc3ccccc23)c1 | i
CCc1cc2c(=O)c(-c3ccccn3)coc2cc1O | 9%
O=C1CC(N2CCC(C(O)(c3ccccc3)c3ccccc3)CC2)C(=O)N1c1ccc(Cl)cc1 (stereo not drawn) | i
O=C(CNS(=O)(=O)c1ccc(F)cc1)N1CCCCCC1 | i
CNC(=S)N1N=C(c2ccc(OC)cc2)CC1c1ccc(Cl)cc1Cl (stereo not drawn) | 4%
O=C(CSCc1ccc([N+](=O)[O-])cc1)Nc1ccc(S(=O)(=O)N2CCCC2)cc1 | i
O=C(NCc1ccccc1)c1cnccn1 | i
COc1ccc(CCNC(=O)C(=O)NCCCN(C)C)cc1OC | i
CCC(=O)Oc1cccc2ccc(/C=C/c3ccc(C(=O)OC)cc3)nc12 | 3.2µg/mL*
CCNC(=S)N1CC=C(c2ccccc2)CC1 | i
O=C(CCN1C(=O)c2ccccc2C1=O)OCc1ccccc1Cl | i
CS(=O)(=O)N1CCC(C(=O)N2CCC(Cc3ccccc3)CC2)CC1 | i
Cc1cccc(NC(=O)C2CC(=O)N(c3cccc(Cl)c3C)C2)c1C (stereo not drawn) | i
O=C(COc1cc2oc(=O)c3c(c2cc1Cl)CCC3)c1ccc(Cl)c(Cl)c1 | i
CCOC(=O)c1c(NC(=O)c2ccc(Cl)c([N+](=O)[O-])c2)sc(C(=O)Nc2ccccc2F)c1C | i
CC1(C)CC(=O)c2sc(NC(=O)c3sc4ccccc4c3Cl)nc2C1 | i
O=C(Nc1nc(-c2ccc(Cl)c(Cl)c2)cs1)c1ccc(Br)o1 | 3%
O=C(Nc1ccc(Cl)cc1F)c1ccc(Cl)c(Cl)c1 | i
NC(=O)c1cc([N+](=O)[O-])ccc1NCCN1C(=O)c2ccc(C(=O)O)cc2C1=O | i
C=CCn1c(SCC(=O)NC(C)(C)C)nnc1-c1ccccc1O | i

# (cont.)
SMILES | Mtb growth
COc1cccc(C2=NN(C(=O)c3ccco3)C(c3ccco3)C2)c1 (stereo not drawn) | 6%
COC(=O)c1ccc(NC(=O)Nc2ccc(Cl)c(Cl)c2)cc1 | i
CCCOc1ccc(C(=O)N2CCN(c3ccc(NC(=O)CC(C)C)cc3Cl)CC2)cc1 | 5%
Cc1ccc(OCCCC(=O)Nc2ccc(OCc3ccccc3)cc2)cc1 | i
CCn1c(SCC(=O)NCCc2ccccc2)nnc1-c1ccc(Cl)cc1 | i
Nc1nncn1C(=O)COc1ccc2ccccc2c1Br | i
O=C(Oc1ccc2c3c(c(=O)oc2c1)CCC3)c1ccccc1[N+](=O)[O-] | i
CCCOc1ccc(C(=O)N2CCN(c3ccc(N)cc3Cl)CC2)cc1 | i
O=C(CSc1nc2[nH]ncc2c(=O)n1-c1ccccc1)Nc1ccc(F)c(Cl)c1 | ?
O=C(Oc1ccccc1)c1cccc(COC(=O)c2cc3ccccc3oc2=O)c1 | 16µg/mL*
O=C(Nc1ccccc1N1CCN(C(=O)c2ccccc2)CC1)c1ccc(Br)o1 | i
COc1cc(NC(=S)NCCCO)c(OC)cc1Cl | i
COc1ccc(OCC(=O)NC(=S)Nc2ccc(S(=O)(=O)N3CCCC3)cc2)cc1 | i
O=S(=O)(NC1CC2CCC1C2)c1ccc2ccccc2c1 (stereo not drawn) | i
O=C(CSc1ncc(-c2ccccc2)nn1)c1ccccc1 | 4%
CCOC(=O)c1c(NC=O)sc2c1CCCC2=O | i
Cc1cccc(OC(C)C(=O)Nc2sc3c(c2C(=O)NCC2CCCO2)CCCC3)c1C (stereo not drawn) | 9%
CCCOc1ccc(Nc2nnc(-c3cc4c(ccc5ccccc54)oc3=O)s2)cc1 | 3%
O=C(CN1C(=O)c2ccccc2C1=O)OCc1ccc(Cl)cc1 | i
CCCCN1C(=O)NC(=O)/C(=C\c2cccn2C)C1=O | 28%
CC1CN(C(=O)C(C)NS(=O)(=O)c2cccc(Cl)c2)CC(C)O1 (stereo not drawn) | 0%
CCc1ccc(/C=N\N2CCN(Cc3ccc(C)cc3)CC2)cc1 | i
Cc1ccc(C(=O)NC2=NCCS2)cc1 | i
COC(=O)COc1ccc(C2CCCCC2)cc1 | 1.5µg/mL*
CCOC(=O)C1=CN(C(C)C)C=C(C(=O)OCC)C1c1ccccc1Br | i

# 2 entries drawn at random from the list so far, as already listed:
SMILES | Mtb growth
Cc1ccc(OCCCC(=O)Nc2ccc(OCc3ccccc3)cc2)cc1 | i
CCCOc1ccc(C(=O)N2CCN(c3ccc(NC(=O)CC(C)C)cc3Cl)CC2)cc1 | 5%

# Continued:
SMILES | Mtb growth
Cc1ccc(-n2c3c(cc(C(=O)NC(C)(C)C)c2=O)C(=O)CC(C)(C)C3)cc1 | i
Cc1ccc(-c2noc(COc3ccc(Br)c(C)c3)n2)cc1 | i
Cc1[nH]nc2c1C(c1cccn1C)C(C#N)=C(N)O2 (stereo not drawn) | i
Cc1ccccc1-c1nnn(CC(=O)N2CCCC2)n1 | i
COc1cc(C)c(C(C)C)cc1S(=O)(=O)NCc1ccccc1 | i
Nc1ncnc(NCC2CCCO2)c1[N+](=O)[O-] (stereo not drawn) | 2%
O=C(O)CCCSCC(=O)Nc1ccccc1 | i
COCc1cc(C)nc(SCC(=O)Nc2nc(-c3ccc(Br)cc3)cs2)c1C#N | i
COc1ccc2[nH]c(C)c(CN3CCOCC3)c(=O)c2c1 | 12%
C=CCn1c(SCC(=O)Nc2nccs2)nc2sc(CC)cc2c1=O | i
COc1cc(NC(=O)Nc2ccc(Cl)cc2)c(OC)cc1Cl | 43%
CCCCNS(=O)(=O)c1ccc(NS(=O)(=O)c2c(C)cc(C)cc2C)cc1 | 2%
COCCNC(=O)c1ccccc1NC(=O)c1ccc([N+](=O)[O-])cc1 | i
C#CC(CC)(CC)NC(=O)Nc1ccc(OC)cc1 | i
O=C(O)c1cccc(NC(=S)NC(=O)c2cc3ccccc3o2)c1 | i
CCCCC(=O)Nc1ccc(NC(=S)NC(=O)c2ccc(OC(C)CC)cc2)cc1OC (stereo not drawn) | i
Cc1cccc(-n2c(SCC(=O)N3C(C)CCCC3C)nc3sc4c(c3c2=O)CCCC4)c1 (stereo not drawn) | 3%
COc1ccc(N(CC(=O)Nc2cccc(Cl)c2Cl)S(C)(=O)=O)cc1OC | 3%
Cc1ccc(-n2c(SCC(=O)Nc3c(Cl)cccc3Cl)nnc2-c2ccncc2)cc1 | i
CC(Oc1cccc(Cl)c1)C(=O)Nc1cccc(C(F)(F)F)c1 (stereo not drawn) | 5%
CCN=C(Nc1ccc(Br)cc1)SC1CC(=O)N(c2ccc(OCC)cc2)C1=O (stereo not drawn) | 1%
C=CCNC(=O)C12CC3CC(CC(C3)C1)C2 | i
O=C(Nc1ccccc1F)c1sc2cc(Cl)ccc2c1Cl | i
Cn1cc(Cl)c(C(=O)Nc2cccc(Cl)c2Cl)n1 | 5%
C=CCn1c(CCCOc2ccc(Cl)cc2Cl)nnc1SCC(=O)Nc1ccccc1C(=O)OC | 36%

# Taken from the entries so far for reference:
SMILES | Mtb growth
Cn1cc(Cl)c(C(=O)Nc2cccc(Cl)c2Cl)n1 | 5%
C=CCn1c(CCCOc2ccc(Cl)cc2Cl)nnc1SCC(=O)Nc1ccccc1C(=O)OC | 36%

# Remaining list, next part:
SMILES | Mtb growth
Cc1c(C(=O)O)c(=O)n(-c2ccccc2)n1-c1ccccc1 | i
COc1ccc(C(=O)Nc2cc(Cl)ccc2C(=O)O)cc1OC | i
Cc1ccc2nc(NC(=O)Nc3ccc(Cl)cc3)sc2c1 | i
C=CCc1cccc(OC)c1OCCn1cnc2ccccc2c1=O | 3%
O=C(CCS(=O)(=O)Cc1ccccc1)Nc1ccc(Br)cc1 | i
Cc1[nH]c(=O)[nH]c(=O)c1NC(=O)c1cccc2ccccc12 | i
CCc1cc(=O)oc2cc(OCC(=O)c3ccc(Br)cc3)c(Cl)cc12 | 2%
NC(=O)c1c(NC(=O)c2cccc3c(Br)cccc23)sc2c1CCCC2 | i
FC(F)(F)c1nc2ccccc2n1CC1CC1(Cl)Cl (stereo not drawn) | i
CC(=O)CCc1c[nH]c2c(C(=O)O)cccc12 | i
COc1c(Cl)cc(Cl)cc1C(=O)NC(=S)Nc1nc(-c2ccc(C)cc2)cs1 | i
CCC(=O)Nc1ccc(Cl)c(NC(=O)c2ccc(OC(C)C)cc2)c1 | i
CCOc1ccc(-c2c(C#N)c(N)nc3c2c(=O)n(C)c(=O)n3C)cc1OC | 1%
Cc1c(C(=O)O)sc2ncnc(N3CCCCC3C)c12 (stereo not drawn) | i
COc1cc(/C=C2\C(=O)NC(=O)N(c3ccc(Cl)cc3)C2=O)cc(I)c1OCC(=O)O | i
COC(=O)CSC1=C(C#N)C(c2ccccc2Cl)C(C(=O)OC)=C(C)N1 (stereo not drawn) | i
COc1ccc(S(=O)(=O)N(CC(=O)NCc2ccccc2OC)c2ccccc2OC)cc1 | i
CCOc1ccc(-n2c(C)nnc2SCc2ccc(Br)cc2)cc1 | 9%
Cc1ccc(-c2csc3nnc(SCC(=O)N4CCCCCC4)n23)cc1C | i
COc1ccc(C(=O)C2CC(C)(C)NC(C)(C)C2)cc1OC | i
COc1ccc2cc(S(=O)(=O)N3CCN(C)CC3)ccc2c1 | i
CC(=O)c1cccc(Nc2nc(-c3ccc(O)cc3)cs2)c1 | i
CCn1nnnc1NCc1cccc(Cl)c1 | i
O=C(CSc1nnc(CN2CCOCC2)n1-c1ccc(Cl)cc1)Nc1ccc2c(c1)OCO2 | i
O=C(CCn1nc(-c2ccc(Cl)cc2)c2ccccc2c1=O)NC1CCCCC1 | i

# The results go on.
SMILES | Mtb growth
Cn1c(CCc2ccccc2)nnc1SCC(=O)Nc1ccc(Br)cc1 | i
O=C(CCc1ccc(S(=O)(=O)NCc2ccccc2)cc1)Nc1ccc(F)c(Cl)c1 | 7%
Cc1ccc(-c2n[nH]c(=O)c3ccccc23)cc1S(=O)(=O)NC(C)c1ccccc1 (stereo not drawn) | i
Cc1cccc(OCCN2CC(C)CC(C)C2)c1 (stereo not drawn) | i
CC(=O)c1cccc(NC(=S)NCc2cccs2)c1 | i
CS(=O)(=O)NC1CCCCCCC1 | 1%
CCCn1nnc(NC(=O)c2ccc(OCC)c(Br)c2)n1 | i
Cc1ccc(NC(=O)Nc2ccc(Cl)c(Cl)c2)cc1C | i
O=C1CC(NCc2ccc(F)cc2)C(=O)N1c1ccc(Br)cc1 (stereo not drawn) | i
O=C(NCc1ccco1)c1ccc2c(c1)C(=O)N(C1CCCCC1)C2=O | i
CCOc1cc(C(=S)N2CCCC2)ccc1OCc1ccccc1C#N | 2%
Cc1cc(C(=O)Nc2nnc(CC(C)C)s2)ccc1[N+](=O)[O-] | i
CCn1c(Cc2ccc(OC)cc2)nnc1SCC(=O)Nc1cc(C)c(C)cc1Br | i
COc1ccc(CN2CCN(C3CCC(c4ccccc4)CC3)CC2)c(OC)c1 (stereo not drawn) | i
COCCCNC(=O)COc1cc(C)cc(C)c1C | i
CC(=O)c1ccc(NC(=O)c2ccc(-c3ccccc3[N+](=O)[O-])o2)cc1 | i
CC(C)CC(NC(=O)c1ccco1)C(=O)Nc1ccc2c(c1)OCCO2 (stereo not drawn) | 3%
Cc1ccc(NC(=O)Cn2cnc3scc(-c4ccccc4)c3c2=O)cc1 | 44%
COc1cccc(N2C(=O)C(CC(=O)Nc3ccc(F)cc3)N(Cc3ccc(F)cc3)C2=O)c1 (stereo not drawn) | 7%
O=C(Nc1ccc2c(c1)oc1ccccc12)c1ccccc1I | 5%
O=C(NN1C(=O)C2C3C=CC(C3)C2C1=O)c1ccncc1 (stereo not drawn) | 41%
CC(=O)Nc1nnc(CC2CCCC2)s1 | i
CN(C)c1ccc(C2CC(=O)C3=C(C2)Nc2ccccc2NC3c2cccs2)cc1 (stereo not drawn) | i
CCc1c(C)sc(NC(=S)Nc2cccc(C(=O)NCc3ccccc3)c2)c1C(=O)OC | i
C=CCSc1nnc(NC(=O)CSc2nnc(C)s2)s1 | 4%

# The list goes on:
SMILES | Mtb growth
Fc1cccc(Cl)c1-c1nnc2ccc(N3CCOCC3)nn12 | 0%
COC(=O)c1ccc(OCC(O)CN2CCN(c3cccc(Cl)c3)CC2)cc1 (stereo not drawn) | 46%
COc1ccccc1CNC(=O)C(=O)Nc1cccc(C)c1C | i
COc1cccc(N(CC(=O)N2CCCC2)S(C)(=O)=O)c1 | i
O=C(COc1ccc2ccccc2c1Br)NCC1CCCO1 (stereo not drawn) | 2%
COc1ccc(Nc2ncnc3sc(C)c(C)c23)cc1Cl | i
Clc1cc(NCc2cccs2)ccc1N1CCOCC1 | i
CCCCc1ccc(NC(=O)CCc2ccc(OC)cc2)cc1 | 43%
COc1cccc(NC(=O)c2ccc(N3CCN(C)CC3)c([N+](=O)[O-])c2)c1 | 40%
CCCCc1cc(=O)oc2cc(OS(=O)(=O)c3ccc(C)cc3)ccc12 | 5%

# Ordered by molar mass (low to high): part of the list above.
SMILES | Mtb growth
C=CCNC(=O)C12CC3CC(CC(C3)C1)C2 | i
COc1ccc2cc(S(=O)(=O)N3CCN(C)CC3)ccc2c1 | i
CCCn1nnc(NC(=O)c2ccc(OCC)c(Br)c2)n1 | i
CCC(=O)Nc1ccc(Cl)c(NC(=O)c2ccc(OC(C)C)cc2)c1 | i
O=C(CCS(=O)(=O)Cc1ccccc1)Nc1ccc(Br)cc1 | i
O=C1CC(N2CCC(C(O)(c3ccccc3)c3ccccc3)CC2)C(=O)N1c1ccc(Cl)cc1 (stereo not drawn) | i

# From PubChem BioAssay

# An excerpt; the hit share may differ from the screen's.
